TRPML1 ag = agonists of human TRPML1 channel. activation, % (test concentration not listed). AID 624414. TRPML1-expressing cells, Ca2+ dye fluorescence, FDSS; host cell line not named in the record; reference of the full effect not given here. 410,000 compounds, 0.12% hits; in the data active = activation above about 50%; inconclusive = about 30% to 50%; inactive = below about 30%; further: 0% is about no effect; the text of the record puts the active cut at 80%
Target sequence (Q9GZU1 whole entry, looked up): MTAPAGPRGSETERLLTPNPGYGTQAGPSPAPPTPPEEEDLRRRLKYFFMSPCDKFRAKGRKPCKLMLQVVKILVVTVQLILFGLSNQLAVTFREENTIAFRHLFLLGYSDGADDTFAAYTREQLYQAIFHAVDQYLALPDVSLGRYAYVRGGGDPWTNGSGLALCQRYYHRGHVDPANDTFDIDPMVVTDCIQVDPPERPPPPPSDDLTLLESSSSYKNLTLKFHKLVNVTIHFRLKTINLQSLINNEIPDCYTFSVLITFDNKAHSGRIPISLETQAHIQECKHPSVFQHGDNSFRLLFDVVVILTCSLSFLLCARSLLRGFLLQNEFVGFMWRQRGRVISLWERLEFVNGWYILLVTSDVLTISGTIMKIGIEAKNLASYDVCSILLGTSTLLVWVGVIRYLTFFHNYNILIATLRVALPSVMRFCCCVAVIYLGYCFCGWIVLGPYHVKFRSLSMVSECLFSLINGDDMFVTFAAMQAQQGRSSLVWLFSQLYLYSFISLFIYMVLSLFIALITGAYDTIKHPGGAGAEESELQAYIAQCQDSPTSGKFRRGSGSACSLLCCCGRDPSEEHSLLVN
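Tet-induced TRPML1-DL cells, 1,500 per well, cultured overnight, were loaded with a no-wash Ca2+ dye for 45–90 min. Calcium fluorescence was recorded on the FDSS for 110 s after compound addition, before the EC80 agonist (4 uM 54-4) was added.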
ClpP mod = qHTS Assay for Activators of ClpP; Potency, µM (top dose mostly 57.5 µM), for the others: at the top dose activity change, negative = active; 340,000 compounds, 1.9% hits; purified B. subtilis ClpP, FRET peptide cleavage, 20 min; ATP-dependent Clp protease proteolytic subunit (Bacillus subtilis (strain 168)), P80244; active = well fitted falling curve with a large enough effect; inconclusive = small, poorly fitted or top-dose-only effect; inactive = no such curve, though single readings can be large or run the other way; further: potency means the concentration at half of the fitted maximal effect; the source files actives as falling curves though it sought activators and does not explain the sign; nearly all actives have a fitted effect of over 65% in size; many hits overshoot -100%
Target sequence (P80244 whole entry, looked up): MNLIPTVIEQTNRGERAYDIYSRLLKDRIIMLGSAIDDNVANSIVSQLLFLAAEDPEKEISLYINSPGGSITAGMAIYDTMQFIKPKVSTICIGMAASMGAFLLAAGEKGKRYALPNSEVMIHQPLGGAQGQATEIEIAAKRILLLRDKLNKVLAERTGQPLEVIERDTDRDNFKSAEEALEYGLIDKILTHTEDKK
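ClpP 10 microg/mL final, pH 8 Tris/KCl buffer with BSA, glycerol, Tween-20; compound pinned in; FRET-FV substrate; RT 20 min; Ex320/Em430; ΔFRET vs ADEP 5.8 microM, DMSO, no enzyme.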
Menin MLL FP FL = inhibitors of human menin-MLL interaction, wild-type MLL peptide | Fluorescence polarization, fluorescein-MLL peptide displacement from menin | FP activity change, % at 61.4 µM | 290,000 tested, under 10 active | AID 1766; inconclusive = falling polarisation curve, or a change in total fluorescence; inactive = total fluorescence flat and polarisation flat or rising; no compound was filed as active; the % refers to the polarisation; negative = inhibition;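 further: % of control where 0% means no effect; inhibitors lower the polarisation; unlabelled MLL peptide was the positive control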
TRPV1 potentiator = enhances activation of the human vanilloid receptor TRPV1; Q8NER1; TRPV1-expressing cells, Fluo-8 calcium influx, capsaicin EC20 potentiation; host cell line not named in the record; control for the full effect not named in the record; potentiation, % at 8.33 µM; 320,000 compounds, 0.02% hits; active means potentiation above 80%; inconclusive means 30% to 80%; inactive means below 30%; further: 0% is about no effect
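TRPV1-expressing cells were cultured overnight at 35.5C and loaded with Fluo-8 calcium dye for 40 to 90 min at room temperature. After a 10 s baseline, compound was added and calcium influx was read kinetically for 3 min (ex 480/em 520 nm).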
PINK1 modulator = modulators of PINK1 expression. Potency, µM (top dose mostly 76.6 µM), inactives show top-dose activation (PINK1 increase), usual class: activators. 410,000 compounds, 0.2% hits. PINK1 immunofluorescence, high-content cytometry, 24 h. AID 624263; active = well fitted activation curve with a large enough effect; inconclusive = small, poorly fitted or top-dose-only effect; inactive = flat fitted curve, though single readings scatter; cell line not stated here;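 further: potency means the concentration at half of the fitted maximal effect; % of control where 0% means no effect; nearly all actives have a fitted effect of over 65% in size; a mitochondrial uncoupler was the plate control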
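PINK1 protein, normally rapidly degraded, was detected by immunofluorescence after 24 hour compound treatment of a stable cell line. Titration data (5 concentrations) came from laser-scanning cytometry, with CCCP-treated wells as controls.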
TRPML1 inh = human mucolipin-1 channel inhibition; Q9GZU1; TRPML1-inducible cells, Ca2+ dye fluorescence, FDSS; hits give low values; inhibition of EC80 agonist-evoked calcium signal; activity change, negative = inhibition, % (no concentration beside the values); 390,000 compounds, 0.02% hits; AID 624415; in the data active means activity change below about -50%; inconclusive means about -30% to -50%; inactive means above about -30%;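 further: stimulus is agonist 54-4 at its EC80 concentration; on the % scale 0 is the no-effect control and ±100 the full control effect; compound concentration not given in the record; the text of the record puts the active cut at -80%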
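TRPML1-DL cells, Tet-induced overnight (~16 h, 37 °C) at 1,500 cells/well, were loaded with Ca8 no-wash dye plus quencher for 45-90 min at room temperature. Compounds were pinned during FDSS kinetic reading; agonist 54-4 at EC80 (4 uM final) then added.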
Sfp inh = inhibitors of Bacillus subtilis Sfp phosphopantetheinyl transferase. Q9F4F7. Biochemical Sfp PPTase activity, qHTS. Potency, µM, without a hit: max response, negative = inhibition, hits mostly inhibitors. 310,000 compounds, 3.5% hits. AID 1490; active means well fitted inhibition curve with a large enough effect; inconclusive means small, poorly fitted or top-dose-only effect, or another doubt; inactive means no such curve, though single readings can be large or run the other way;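 further: the enzyme is Sfp with the accession as filed and its product quenches rhodamine fluorescence; potency means the concentration at half of the fitted maximal effect; 0% = enzyme reaction without inhibitor and -100% = no enzyme wells; top concentration of the series not given in the record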
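With Hepes-Na pH 7.6 buffer containing 10 mM MgCl2, Sfp (15 nM) modified BHQ-2-YbbR (12.5 uM) using rhodamine-CoA (5 uM). Two reads 30 minutes apart at 525/598 nm yielded each well's rate.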
* = called active by the depositor; ? = inconclusive; · = not tested or not shown; & = joins results of further samples; [ ] = dose if it differs, or a comment.

SMILES | TRPML1 ag | ClpP mod | Menin MLL FP FL | TRPV1 potentiator | PINK1 modulator | TRPML1 inh | Sfp inh
COc1ccc(C(C)(C)C)cc1NC(=O)COC(=O)CN1C(=O)NC2(CCCCC2C)C1=O (centres undefined) | -0.1 | 0.7% | · | · | 2.5% | 9 | ·
O=c1[nH]c(CN2CCN(S(=O)(=O)c3ccc(Cl)cc3)CC2)nc2cc(Cl)ccc12 | -0.2 | -1.3% | 0.8 | 5 | -0.6% | 6 | -2%
COC(=O)/C(C#N)=C/c1c(N2CCN(c3ccccc3)CC2)nc2c(C)cccn2c1=O | 1.9 | -1.0% | 2.5 | 2 | -0.9% | 16 | -1%
Cc1ccc(-c2cnc3ccccc3n2)cc1C | 1.4 | ? | 6.4 | -6 | 0.9% | 26 | -6%
Cn1c(C(=O)OCC(=O)NCc2ccco2)cc2sccc21 | 0.2 | -0.6% | 2.3 | 6 | -0.1%[38.3 µM] | -4 | -23%
COC(=O)N/N=C1\CCCc2ccccc21 | -0.1 | 0.6% | 3.2 | -2 | 0.9% | 3 | 6%
COc1ccc(NC(=O)CSc2n[nH]c(C)c2[N+](=O)[O-])cc1 | 0.2 | 2.5% | 0.7 | 5 | 1.2% | -5 | 18%
O=C(CCC(=O)c1ccc(F)cc1)NC1CCCN(Cc2ccccc2F)C1 (centres undefined) | -0.7 | -1.6% | -0.2 | 2 | -0.2% | -10 | 9%
Cc1cc(C)n2[nH]c(=O)c(N=Nc3ccc(S(N)(=O)=O)cc3)c2n1 | 1.1 | · | 5.6 | 13 | -0.2% | 23 | 21%
Cc1ccc(NCc2n[nH]c(=S)n2-c2ccccc2)c(C)c1 | 1.0 | -0.3% | -1.9 | ? | 2.0% | 14 | 11%
Cc1ccc2ccc(C(Nc3ccccn3)c3ccccc3)c(O)c2n1 (centres undefined) | 0.6&-1.0 | -7.0%&-2.7% | -1.3 | · | 14%&1.3% | -3&-3 | 11%
CCOC(=O)C1(Cc2ccccc2C#N)CCCCC1=O (centres undefined) | 1.2 | · | · | · | 2.3% | -11 | ·
COc1ccccc1-c1ccc(SCc2cccc(F)c2)nn1 | 1.0 | -3.2% | -0.7 | 6 | 3.3% | 3 | -13%
O=C(COc1ccccc1)Nc1ccccc1C(=O)OCc1cc(=O)n2nc(C3CC3)sc2n1 | 0.2 | -5.1% | · | · | -1.3% | -2 | ·
CCCCn1c(SCC(=O)N2CCCc3ccccc32)nc2c1c(=O)n(C)c(=O)n2C | 1.4 | 0.5% | 1.3 | 0 | -2.2%[38.3 µM] | -29 | 14%
CC1=C(C(=O)OCC2CCCCC2)C(c2ccccc2F)NC(=O)N1 (centres undefined) | -0.2 | · | · | · | 2.7% | -1 | ·
Cc1ccc(Nc2cc(C(=O)NCCCN3CCOCC3)c3ccccc3n2)cc1C | 0.3 | -1.3% | 0.3 | -2 | -1.4% | -6 | -5%
Cc1cc(C)n(CCNC(=O)c2cc(COc3ccc4ncccc4c3)on2)n1 | 3.1 | -16% | -0.6 | -11 | -1.3% | 9 | 12%
CCCCn1c(N)c(N(CCC(C)C)C(=O)CSc2nnc(Nc3ccccc3)s2)c(=O)[nH]c1=O | -1.2 | 0.1% | 0.7 | -2 | 2.0% | -10 | -1%
COc1ccccc1N1CCN(C(=O)CSc2nc3ccccc3nc2N2CCCCC2)CC1 | 0.1 | -14% | 9.0 | 13 | 6.8% | -1 | -8%
Cc1ccc(C(c2sc3nc(-c4ccco4)nn3c2O)N2CCN(Cc3ccccc3)CC2)cc1 (centres undefined) | 2.9 | 3.1% | · | · | 0.6% | ? | ·
Cc1n[nH]c(C)c1CCC(=O)N/N=C/c1c(C)[nH]c2ccccc12 | 0.1 | · | -0.4 | -5 | 0.0% | -17 | 16%
CCn1c(CCNC(=O)c2ccc(C)cc2)n[nH]c1=S | 5.4 | -2.2% | 1.3 | 10 | 0.6% | 7 | -11%
Cn1cccc1/C=N/n1c(-c2ccc(Cl)cc2)n[nH]c1=S | 1.0 | 3.6% | 5.5 | -7 | 6.9% | -2 | 3%
COc1ccc(NC(=O)CCC(=O)N/N=C/c2ccncc2)cc1 | 3.8 | 1.8% | 3.4 | -16 | 0.8% | 12 | 8%
O=C(Nc1ccc(NC(=O)c2cccs2)cc1)c1ccc(Br)cc1 | 0.7 | -4.7% | · | · | -0.5% | 1 | ·
O=C1CCc2cc(S(=O)(=O)N3CCCCC3)cc3c2N1CC3 | -0.2 | · | · | 2 | -1.5% | -7 | ·
COc1ccc2c(Cl)c(C(=O)OCC(=O)c3ccc4c(c3)NC(=O)CO4)sc2c1Cl | -0.1 | -12% | -0.5 | -1 | 2.6% | -7 | -2%
COc1ccc(S(=O)(=O)N(C)CC(=O)NCc2cccnc2)cc1Cl | 0.9 | -1.6% | 3.3 | -7 | 5.1%[38.3 µM] | 2 | 12%
CCN(CC(=O)Nc1ccc2c(c1)OCCO2)C(=O)COc1ccc(C(C)=O)cc1 | -0.5 | 1.0% | · | · | 0.0% | -4 | ·
CC(C)N(C(=O)[C@H]1C[C@H](CC(=O)NCCc2ccccn2)C(=O)N2CCc3c([nH]c4cc(-c5ccco5)ccc34)[C@]12C)C(C)C | -0.8 | 4.0% | · | · | 27% | -5 | ·
COc1cc(C(C)=O)ccc1OCc1cn(CC(=O)c2ccc(O)cc2)nn1 | -1.0 | 1.8% | · | · | -0.3% | 2 | ·
Cc1ccccc1OCC(=O)Nc1ccc(N2CCN(C(=O)C(C)C)CC2)c(Cl)c1 | 4.7 | -0.8% | 3.6 | 10 | -2.8% | 44 | 21%
CCc1nc2c(OCCn3cccc3)cccn2c1N(C)C(=O)c1ccc(C)cc1 | -0.9 | 0.4% | · | · | -0.4% | · | ·
COc1ccc(Cn2c(CO)cnc2SCc2ccccc2C)cc1 | 1.5 | -0.9% | · | · | -1.1% | 2 | ·
C=CCn1c(N)cc(=O)nc1SC(C)C(=O)Nc1ccc(C(=O)OCC)cc1 (centres undefined) | 0.1 | -5.2% | 4.7 | 3 | 5.0% | 0 | -11%
CCCn1c(SCC(=O)Nc2cccc(C)n2)nnc1C(C)C | -0.7 | · | 0.8 | 1 | -0.2% | -14 | -16%
Cc1ccc(S(=O)(=O)N(C)C)cc1NC(=O)c1cc(-c2ccncc2)nc2ccccc12 | -0.4 | -6.5% | · | · | 1.0% | -15 | ·
CN(CCc1ccccc1)C(=O)c1ccc(NC(=O)Cc2ccc(NC(=O)C3CCCN(C(=O)C4CCCCC4)C3)cc2)cc1 (centres undefined) | 0.7 | 2.0% | · | · | 1.7% | 10 | ·
O=C(CCS(=O)(=O)c1cccc2nonc12)NC1CCCCCC1 | -0.1 | -3.3% | -0.9 | 4 | -1.2% | -21 | 0%

Continued, starting with the last two of the part before.
SMILES | TRPML1 ag | ClpP mod | Menin MLL FP FL | TRPV1 potentiator | PINK1 modulator | TRPML1 inh | Sfp inh
CN(CCc1ccccc1)C(=O)c1ccc(NC(=O)Cc2ccc(NC(=O)C3CCCN(C(=O)C4CCCCC4)C3)cc2)cc1 (centres undefined) | 0.7 | 2.0% | · | · | 1.7% | 10 | ·
O=C(CCS(=O)(=O)c1cccc2nonc12)NC1CCCCCC1 | -0.1 | -3.3% | -0.9 | 4 | -1.2% | -21 | 0%
Cc1ccc(C(=O)N/C(=C/C=C\c2ccccc2)C(=O)NCc2ccco2)cc1 | 0.0 | · | 1.9 | ? | 2.3% | -2 | -16%
CCCCN(C(=O)c1cc(OC)c(OC)c(OC)c1)C1=CC2CCC(C1)N2C (centres undefined) | -0.5 | -1.1% | 4.5 | 19 | -1.5% | 7 | 1%
COc1ccc(NC(=O)Cn2c(C)cc3ccccc3c2=O)c(OC)c1 | -0.3 | ? | · | · | 1.5% | -9 | ·
O=C(Cn1ncc(Cl)c(Cl)c1=O)NCC1CCCCC1 | -0.8 | 0.8% | · | 2 | -1.0% | 0 | 10%
CC(=O)c1cccc(N=C2NC(=O)CS2)c1 | 1.2 | 1.7% | 1.5 | 0 | -1.0% | 20 | 16%
COc1ccc(S(=O)(=O)N(CC(=O)NCCSCc2ccccc2)c2ccc(C)cc2)cc1 | 6.0 | -0.2% | · | · | 1.9% | -9 | ·
CCOC(=O)C1=C(N)OC2=C(C(=O)CC(C)C2)C1c1cccnc1 (centres undefined) | -0.7 | 0.2% | 1.2 | 9 | -0.9% | 13 | 8%
O=c1c2c3c(sc2ncn1Cc1ccc(F)cc1)CCC3 | -0.4 | -2.3% | 3.1 | 23 | -0.3% | -3 | 3%
O=C(NNC(=O)c1ccccc1O)c1ccc(S(=O)(=O)Nc2ccccc2)cc1 | 0.2 | -2.1% | · | -1 | 1.1% | -8 | ·
O=C(Nc1c(C(=O)O)[nH]c2ccccc12)NC1CCCCC1 | -0.2 | 7.9µM* | 5.5 | 1 | 0.7% | 12 | 1%
Nc1cc(CN2C(=O)c3ccccc3C2=O)cc(Cl)c1O | -0.3 | -0.1% | -5.3 | 5 | · | -2 | -29%
Nc1c(Cl)cc(C2=NCCn3nc4ccccc4c32)cc1Cl | 1.2 | -3.3% | · | 26 | 0.8% | 23 | ·
CCc1ccc(NC(=O)[C@H](C)NC(=O)C2CCN(C(=O)[C@@H](NC(=O)OC(C)(C)C)C(C)C)CC2)cc1 | 1.4 | 1.1% | -8.2 | 24 | 0.6% | 3 | 6%
CC(C)(C)NC(=O)C1c2ccccc2OCC(=O)N1CCCN1CCOCC1 (centres undefined) | 0.3 | -1.9% | · | · | 1.7% | · | ·
COc1ccc(OC)c(C(c2nnnn2CCc2ccccc2)N2CCN(c3ccccc3)CC2)c1 (centres undefined) | 51* | -4.0% | 1.5 | -2 | 0.7% | -11 | 10%
CC(Sc1ncccn1)C(=O)N1CCc2ccccc21 (centres undefined) | 0.0 | -4.3% | · | 7 | 0.0% | 3 | ·
Clc1ccc(COc2cccc(CNCc3ccncc3)c2)cc1 | -1.5 | · | 1.2 | -7 | -0.6% | -19 | 9%
O=C(OCC(=O)N1CCC(c2ccccc2)=N1)c1ccc(Cl)s1 | -1.6 | -7.2% | · | · | 1.6% | -10 | ·

Assay outcomes deposited in PubChem BioAssay by National Center for Advancing Translational Sciences (NCATS).
